Rango-impB inh = qHTS Assay for Inhibitors of Rango (Ran-regulated importin-beta cargo) - Importin beta complex formation. Importin subunit beta-1 (Homo sapiens), Q14974. Rango CFP/YFP FRET sensor + importin beta, 45 min. Potency, µM (highest dose often 92.2 µM), for the others: at the top dose inhibition of complex formation. 0.031% of 340,000 active. AID 540263, 2011; active = rising FRET ratio curve, often small or poorly fitted; inconclusive = mostly compound fluorescence or quenching in the first reads; inactive = flat curves in all reads;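 further: potency means the concentration at half of the fitted maximal effect; 0% = DMSO wells and 100% = buffer wells lacking importin beta; nearly all actives have a fitted effect of over 15% in size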
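Inhibition scored from the CFP 486 nm/YFP 530 nm FRET ratio 45 min after adding 0.125 microM importin beta to 50 nM Rango biosensor preincubated 5 min with compound (room temperature, PBS with DTT, Tween-20, BSA). No-importin wells as positive control.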
GLA inh pH 4.5 = qHTS Assay for Inhibitors of Human alpha-Galactosidase at pH 4.5. purified enzyme, 4-MU-alpha-Gal fluorescence, pH 4.5. activity change, negative = inhibition, % at 105 µM. 230,000 tested, under 10 active. AID 1467, 2008; inconclusive = small, poorly fitted or top-dose-only inhibition, or a rising curve; inactive = flat fitted curve, though single readings scatter; no compound was filed as active;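 further: 0% = full activity with enzyme and -100% = basal without enzyme; dose as in the result columns while the protocol names 77 µM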
Target sequence (P06280 whole entry, looked up): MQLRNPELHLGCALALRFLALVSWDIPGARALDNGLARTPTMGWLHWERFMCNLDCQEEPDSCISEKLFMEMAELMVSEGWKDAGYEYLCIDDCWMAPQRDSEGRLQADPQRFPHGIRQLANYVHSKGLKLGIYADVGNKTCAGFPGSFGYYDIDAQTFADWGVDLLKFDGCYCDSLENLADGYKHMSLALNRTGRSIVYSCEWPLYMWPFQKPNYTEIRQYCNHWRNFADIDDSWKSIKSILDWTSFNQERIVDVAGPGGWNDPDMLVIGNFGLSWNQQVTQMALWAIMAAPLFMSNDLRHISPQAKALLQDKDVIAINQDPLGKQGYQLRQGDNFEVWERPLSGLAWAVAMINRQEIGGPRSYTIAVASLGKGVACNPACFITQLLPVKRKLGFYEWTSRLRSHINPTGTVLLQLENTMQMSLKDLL
Rango release inh = qHTS Assay for Inhibitors of RanGTP induced Rango (Ran-regulated importin-beta cargo) - Importin beta complex dissociation | AID 540253, 2011 | Biochemical FRET Rango-importin beta, RanGTP-induced dissociation | Potency, µM (titrated, usually from 46.1 µM), inactives show at the highest dose activity change, negative = inhibition | 0.071% of 340,000 active; active means falling FRET ratio curve, often poorly fitted, with flat reads before Ran was added; inconclusive means other falling curves, or compound fluorescence or quenching; inactive means flat or rising ratio curve;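 further: potency means the concentration at half of the fitted maximal effect; % of control where 0% means no effect; nearly all actives have a fitted effect of over 45% in size; -100% = wells without RanGTP and RCC1; the record marks most hits as doubtful in a second field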
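Compounds sat 5 min at room temperature with 0.1 uM Rango biosensor plus 0.25 uM importin beta, then FRET pre-read. RanGTP-RCC1 (0.6 uM Ran, 2mM GTP, 0.2 uM RCC1) added for 45 min, and the CFP/YFP post-read measured blocked complex dissociation.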
miR-21 FLuc = qHTS Assay for Modulators of miRNAs and/orActivators of miR-21. HeLa miR-21 FLuc reporter, luciferase, 48 h. Potency, µM (doses to about 38.3 µM), for the others: at the highest dose reporter change, positive = more light. 340,000 tested, under 10 active; active = well fitted rising curve with a large enough effect; inconclusive = small, poorly fitted or top-dose-only effect; inactive = no such curve, though single readings can be large or run the other way;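 further: % of control where 0% means no effect; miR-21 action dims this reporter so a rising signal means less miR-21 action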
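Using DMEM plus 10% FBS, HeLa miR-21-FLuc cells are incubated with test compounds (final up to about 40uM) for 48 hours; firefly luciferase signal is then imaged following reagent-mediated lysis.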
* marks the source's active call; other numbers are inactive results; [ ] = dose if it differs, or a comment. An excerpt, so the mix of outcomes need not match the whole.

O=C(NN=Cc1ccc(F)c(F)c1)c1ccc(NS(=O)(=O)c2cccs2)cc1 was read as Rango-impB inh -1.3% and Rango release inh -2%.
`CCOC(=O)c1ccccc1NC(=S)N1CCN(C2CCCCC2)CC1` gave Rango-impB inh 3.4%, GLA inh pH 4.5 -3, Rango release inh -12% and miR-21 FLuc 7%.
`COc1ccc(CCC(=O)OCC(=O)Nc2sccc2C#N)cc1` gave Rango-impB inh inconclusive and Rango release inh 41%.
`Cc1cc(C)c(NC(=O)CCCN2CCN(C)CC2)c(C)c1` gave Rango-impB inh 0.0%, GLA inh pH 4.5 1, Rango release inh -11% and miR-21 FLuc -1%.
COc1ccc(CCNC(=O)CC(NS(=O)(=O)c2ccc(NC(C)=O)cc2)C(C)C)cc1OC (configuration not stated) was read as Rango-impB inh -1.5%, GLA inh pH 4.5 9, Rango release inh 1% and miR-21 FLuc 1%.
`COCCCN(C(=O)c1cc(-c2ccco2)nc2ccccc12)c1c(N)n(Cc2ccccc2)c(=O)[nH]c1=O` gave Rango-impB inh inconclusive and Rango release inh -2%.
For COc1ccc2c(CC(=O)Nc3ccc(OC)c(S(=O)(=O)N4CCOCC4)c3)coc2c1 the results were Rango-impB inh 0.9%, GLA inh pH 4.5 6, Rango release inh -21% and miR-21 FLuc -18%.
`CCCCN1C(=O)CC(Nc2ccc(CC)cc2)C1=O` (configuration not stated) gave Rango-impB inh inconclusive, GLA inh pH 4.5 0, Rango release inh -5% and miR-21 FLuc -33%.
COc1ccc(/C=N/NC(=O)c2ccc(NC(=O)c3cccc([N+](=O)[O-])c3)cc2)c(C(=O)O)c1OC was read as Rango-impB inh 1.7%, Rango release inh 2% and miR-21 FLuc 9%.
For Cc1ccccc1-n1ncc(C(C)NS(=O)(=O)c2sccc2C)c1C (configuration not stated) the results were Rango-impB inh -2.4%, Rango release inh -20% and miR-21 FLuc -1%.
COC(=O)Cc1cc(OC)c(OC)cc1Cc1cc(OC)c(OC)cc1CC(=O)OC was read as Rango-impB inh 2.0%, GLA inh pH 4.5 7, Rango release inh 25% and miR-21 FLuc -11%.
Screening CSc1nc2c(c(=O)[nH]1)C(c1ccccc1)C1=C(CC(C)(C)CC1=O)N2 (configuration not stated) returned Rango-impB inh -3.0%, GLA inh pH 4.5 4, Rango release inh inconclusive and miR-21 FLuc 2%.
Screening Brc1ccc(C=Nc2ccc(Nc3ccccc3)cc2)s1 returned Rango-impB inh inconclusive, GLA inh pH 4.5 19, Rango release inh -16% and miR-21 FLuc -1%.
CC(C)c1[nH]c(=O)c(C#N)c2c1COC(C)(C)C2 was read as Rango-impB inh -0.2%, GLA inh pH 4.5 6, Rango release inh -1% and miR-21 FLuc -8%.
Screening O=C(NNC1=NCCC1)c1cccc(Br)c1 returned Rango-impB inh 1.3%, GLA inh pH 4.5 -13, Rango release inh 5% and miR-21 FLuc -10%.

4 records picked at random from those above, as already listed:
Screening O=C(NNC1=NCCC1)c1cccc(Br)c1 returned Rango-impB inh 1.3%, GLA inh pH 4.5 -13, Rango release inh 5% and miR-21 FLuc -10%.
`Cc1cc(C)c(NC(=O)CCCN2CCN(C)CC2)c(C)c1` gave Rango-impB inh 0.0%, GLA inh pH 4.5 1, Rango release inh -11% and miR-21 FLuc -1%.
`COc1ccc(CCC(=O)OCC(=O)Nc2sccc2C#N)cc1` gave Rango-impB inh inconclusive and Rango release inh 41%.
For COc1ccc2c(CC(=O)Nc3ccc(OC)c(S(=O)(=O)N4CCOCC4)c3)coc2c1 the results were Rango-impB inh 0.9%, GLA inh pH 4.5 6, Rango release inh -21% and miR-21 FLuc -18%.

The list goes on:
`COc1ccc(CN(C(=O)CCC(=O)N2CCCCC2)c2nccs2)cc1OC` gave Rango-impB inh 4.4%, GLA inh pH 4.5 6, Rango release inh -1% and miR-21 FLuc -3%.
Screening COc1cc(S(=O)(=O)Nc2cccc3cn[nH]c23)c(OC)cc1C returned Rango-impB inh -0.3%, Rango release inh 14% and miR-21 FLuc -6%.
Screening Cc1noc(C)c1NC(=O)N(C)C[C@H]1Oc2ccc(NC(=O)c3ccncc3)cc2C(=O)N([C@H](C)CO)C[C@@H]1C returned Rango-impB inh 0.5% and Rango release inh 29%.
Screening CCCCNC(=O)c1onc(CSc2ccc(Cl)cc2)c1C(=O)NCCCC returned Rango-impB inh -0.2% and Rango release inh 3%.
COc1cccc(NC(=O)Nc2cc(C(=O)NC(C)C)ccc2N2CC3CC(C2)c2cccc(=O)n2C3)c1 (configuration not stated) was read as Rango-impB inh 2.9%, Rango release inh -5% and miR-21 FLuc -1%.
`Cc1ccc(S(=O)(=O)N2CCN(C(=O)COC(=O)CCOc3ccccc3C)CC2)c(C)c1` gave Rango-impB inh -1.3% and Rango release inh -7%.
Screening COc1ccc(NC(=O)c2c(C)noc2-c2snnc2C)cc1 returned Rango-impB inh 4.5%, GLA inh pH 4.5 3, Rango release inh -3% and miR-21 FLuc 24%.
`O=C(Nc1ccccc1NS(=O)(=O)c1ccc(F)cc1)C1CCC1` gave Rango-impB inh 2.6%, GLA inh pH 4.5 1, Rango release inh -4% and miR-21 FLuc -1%.
For C/C=C(\NC(C)=O)c1ccccc1 the results were Rango-impB inh 2.8% and Rango release inh 2%.
`Cc1cccc(CCNCc2c(C(=O)O)c(C)n(-c3ccccc3)c2C)c1` gave Rango-impB inh -2.8%, Rango release inh -15% and miR-21 FLuc -4%.
`O=C(O)CC(C(=O)NCc1ccccc1)C1CCCO1` (configuration not stated) gave Rango-impB inh -4.3%, GLA inh pH 4.5 -2, Rango release inh 2% and miR-21 FLuc -1%.
CCOC(CNC(=O)c1cc2c(=O)n(CC)c3ccccc3c2s1)OCC was read as Rango-impB inh -1.7%, Rango release inh -22% and miR-21 FLuc -8%.
Screening Cc1nc(-c2ccccc2)sc1C(=O)/C=C/c1ccc(Cl)cc1 returned Rango-impB inh -3.4%, GLA inh pH 4.5 -4, Rango release inh -18% and miR-21 FLuc 1%.
Screening COc1ccc(NS(=O)(=O)c2ccc(O)c(NC(=O)c3ccc(S(=O)(=O)N4CCCC4)cc3)c2)cc1 returned Rango-impB inh -2.1%, GLA inh pH 4.5 -4, Rango release inh 9% and miR-21 FLuc 2%.
Screening COC(=O)c1cccc([N+](=O)[O-])c1CS(=O)(=O)c1ccc(C)cc1 returned Rango-impB inh 0.4%, GLA inh pH 4.5 3, Rango release inh -17% and miR-21 FLuc -1%.

No new results follow: an excerpt of the list.
Screening COc1ccc(NS(=O)(=O)c2ccc(O)c(NC(=O)c3ccc(S(=O)(=O)N4CCCC4)cc3)c2)cc1 returned Rango-impB inh -2.1%, GLA inh pH 4.5 -4, Rango release inh 9% and miR-21 FLuc 2%.
Screening COC(=O)c1cccc([N+](=O)[O-])c1CS(=O)(=O)c1ccc(C)cc1 returned Rango-impB inh 0.4%, GLA inh pH 4.5 3, Rango release inh -17% and miR-21 FLuc -1%.

Next section
Screening CCn1c(SCc2ccccc2)nnc1-c1ccc(S(=O)(=O)N2CCCCC2)cc1 returned Rango-impB inh -1.4%, GLA inh pH 4.5 -8, Rango release inh 11% and miR-21 FLuc 18%.
For O=C(Nc1ccnn1C1CCN(C2CCC2)CC1)c1ccccc1Cl the results were Rango-impB inh -3.3%, Rango release inh -6% and miR-21 FLuc 0%.
O=C(OCc1c(-c2ccccc2)ncc2ccccc12)c1ccc(F)cc1 was read as Rango-impB inh 0.1% and Rango release inh -10%.
O=C(NCCN1CCOCC1)c1cc(-c2ccc(Cl)c(Cl)c2)on1 was read as Rango-impB inh 0.6%, Rango release inh -8% and miR-21 FLuc 0%.
For S=c1[nH]nc(-c2ccncc2)n1Cc1ccco1 the results were Rango-impB inh -4.1%, GLA inh pH 4.5 0, Rango release inh -2% and miR-21 FLuc -2%.
`CCn1ncc(CN2CCC(C(=O)Nc3cccc(-c4cccc(F)c4)c3)CC2)c1C` gave Rango-impB inh 2.3%, Rango release inh 0% and miR-21 FLuc -7%.
CC(NC(=O)c1ccc([N+](=O)[O-])cc1[N+](=O)[O-])c1ccc(-c2ccccc2)cc1 (configuration not stated) was read as Rango-impB inh 0.1%, GLA inh pH 4.5 -6, Rango release inh 12% and miR-21 FLuc -1%.
For O=C(NCCc1ccc(Cl)cc1)c1n[nH]c2ccccc12 the results were Rango-impB inh -1.4%, GLA inh pH 4.5 2, Rango release inh 20% and miR-21 FLuc -45%.
CC1=CC(C)(C)Nc2ccc(OS(=O)(=O)c3ccc(C)cc3)cc21 was read as Rango-impB inh inconclusive, GLA inh pH 4.5 -13, Rango release inh -5% and miR-21 FLuc -1%.
Screening COc1ccc(CCNS(=O)(=O)c2ccc(S(=O)(=O)N3CCCC3)cc2)cc1OC returned Rango-impB inh 5.0%, GLA inh pH 4.5 -2, Rango release inh 10% and miR-21 FLuc -1%.
For CC(=NNC(=O)c1cccs1)c1ccc2c(c1)OCCO2 the results were Rango-impB inh -2.6% and Rango release inh -6%.
Screening O=C1/C(=C/c2ccc3c(c2)OCO3)Oc2cc(OCC(=O)N3CC(O)C[C@H]3C(=O)O)ccc21 (some centres not stated) returned Rango-impB inh inconclusive, Rango release inh inconclusive and miR-21 FLuc -3%.
Screening Nc1nnc(SCC(=O)Nc2cccc(S(N)(=O)=O)c2)s1 returned Rango-impB inh 3.4%, GLA inh pH 4.5 1, Rango release inh -6% and miR-21 FLuc 3%.
Screening Cc1nc2ccccn2c1C(=O)NN=C1CCCC1 returned Rango-impB inh 0.4%, GLA inh pH 4.5 7, Rango release inh 21% and miR-21 FLuc 3%.
Screening COc1ccc(S(=O)(=O)N2CCCCC2)cc1NC(=O)c1ccc2ccccc2n1 returned Rango-impB inh -6.5%, GLA inh pH 4.5 -4, Rango release inh 0% and miR-21 FLuc -16%.
`COc1ccc(NC(=O)c2c(-c3c(Cl)cccc3Cl)noc2C)cn1` gave Rango-impB inh -0.6%, Rango release inh -4% and miR-21 FLuc 3%.
Screening COC(=O)c1sc2nc3c(cc2c1N)C(=O)CC(C)(C)C3 returned Rango-impB inh -3.8%, GLA inh pH 4.5 -25, Rango release inh -3% and miR-21 FLuc -9%.
O=C(/C=C/c1ccc2c(c1)OCO2)Nc1nc(-c2ccc(F)cc2F)cs1 was read as GLA inh pH 4.5 -2 and miR-21 FLuc 16%.
`Cc1nn(-c2ccccc2)c2c1cc1c(=O)n(C)c(=O)nc-1n2-c1ccccc1F` gave Rango-impB inh -1.6%, GLA inh pH 4.5 inconclusive, Rango release inh -15% and miR-21 FLuc -3%.
CCOC(=O)c1c(N)nn(C(C)=O)c1-c1ccccc1 was read as Rango-impB inh -0.1%, GLA inh pH 4.5 1, Rango release inh -8% and miR-21 FLuc -1%.
Screening COc1ccc(NC(=O)CN(C)C(=O)CCC(=O)c2ccc(C)cc2)cc1 returned Rango-impB inh -0.7% and Rango release inh -13%.
CC1CN(C2=NC(=O)/C(=C/c3ccncc3)S2)CC(C)O1 (configuration not stated) was read as Rango-impB inh -0.8%, GLA inh pH 4.5 0, Rango release inh 8% and miR-21 FLuc 10%.
Screening Cc1cc(=O)oc2c(CN(C)Cc3ccccc3)c(O)ccc12 returned Rango-impB inh inconclusive, GLA inh pH 4.5 inconclusive, Rango release inh inconclusive and miR-21 FLuc -2%.
`Cc1ccc2nc(N/N=C\c3ccc([N+](=O)[O-])o3)nc(-c3ccccc3)c2c1` gave Rango-impB inh -0.4%, GLA inh pH 4.5 1, Rango release inh -19% and miR-21 FLuc 4%.
`COc1ccc(-n2nc([N+](=O)[O-])c(=NC3CCN(Cc4ccccc4)CC3)n2O)cc1` gave Rango-impB inh -2.2%, GLA inh pH 4.5 -15, Rango release inh -25% and miR-21 FLuc -10%.
For C[n+]1ccc(/C=C/c2ccccc2O)c2ccccc21 the results were Rango-impB inh 0.8%, GLA inh pH 4.5 2[21.1 µM], Rango release inh 13% and miR-21 FLuc 20%.
Screening O=C(NCCO)/C(=C/c1ccc(Br)cc1)NC(=O)c1cccs1 returned Rango-impB inh 3.1%, GLA inh pH 4.5 -17, Rango release inh -2% and miR-21 FLuc -4%.
For Nc1nc2cc(S(=O)(=O)NC3=NCCCCC3)ccc2s1 the results were Rango-impB inh 2.2%, GLA inh pH 4.5 5, Rango release inh -2% and miR-21 FLuc 1%.

High-throughput results as filed in PubChem.
